# S aureus helic: S. aureus DNA helicase inhibition; actives 0.05% (n = 120,000); inhibition, %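 (tested at about 80 µM)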; AID 485395; purified S. aureus helicase, fluorescence unwinding assay; about half of the hits fall short of the stated cut;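 active = both duplicates at 50% or more, or one of them with a favoured structure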;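 note: 0% = mean of negative control wells and 100% = mean of positive control wells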
# MgrA DNA FP: alters Staphylococcus aureus MgrA binding to DNA | fluorescence polarization | inhibition, %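 (about 10 µg/mL by stock and volumes)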 | actives 0.13% (n = 84,000);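 active = above 50% in either of two replicates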;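 note: 0% = protein plus DNA without compound and 100% = DNA alone without protein; higher means less MgrA bound to DNA so lower polarization; one replicate is shown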
# Active calls of the source: *; · = not tested or not shown; & = joins results of further samples.
S aureus helic	MgrA DNA FP	Compound
-7	-4.8	CC1=CC(C)C2C(=O)N(c3ccc(C(=O)O)cc3)C(=O)C2C1 (stereo unspecified)
-8	·	CN1CCN(S(=O)(=O)c2ccccc2C(F)(F)F)CC1
·	1.1	CC(C)S(=O)(=O)c1cnc(COc2ccc(C(C)(C)C)cc2)nc1N
6	3.9	O=C(O)c1cccc(NC2SC(=O)N(c3ccccc3)C2=O)c1 (stereo unspecified)
-14	·	COC(=O)c1ccc(-c2ccco2)n1Cc1nc(-c2cccc(Cl)c2)oc1C
8	·	CCOc1ccc(C2Oc3nc(SC)nnc3-c3ccccc3N2C(=O)CC)cc1 (stereo unspecified)
·	-2.3	N#CCCSc1ccccc1N=Cc1ccccc1O
-5	1.7	CCCCN(C)C(=O)C1(c2ccc(OC)cc2)CCOCC1
·	0.9	CC(OCc1ccccc1)C(NC(=O)OC(C)(C)C)C(N)=O (stereo unspecified)
3	2.1	O=C(N/N=C/c1ccc(OC2CSC2)cc1)c1ccncc1
·	0.2	N#CCC(=O)c1cccc(CSc2ccc(Cl)cc2)c1
1	·	CCOc1cc(/C=N/NC(=O)c2cccnc2)ccc1OCC(=O)N1CCCCC1
·	-4.0	CN(CCc1ccccn1)C(=O)Nc1ccccc1
-17	·	CCOC(=O)N1CCC(NC(=O)Nc2cn(C)c(=O)c3ccccc23)CC1
-20	·	C=CCn1c(C(C)Oc2ccc(Cl)cc2)n[nH]c1=S (stereo unspecified)
·	-1.0	COc1cc(-c2nc3ccccc3c(=O)n2NC(=O)c2ccc(Br)cc2)cc(OC)c1OC
-2	·	COC(=O)c1cc(C(=O)c2cc(Br)ccc2O)coc1=N
-9	·	O=C(Cn1nc(-c2ccco2)ccc1=O)NC1CCCCC1
-1	-0.5	COc1cc2c(cc1OC)C(c1cc(Br)ccc1O)N(C)CC2 (stereo unspecified)
-11	-1.1	Cc1ccc(C(=O)Cc2nc3ncccc3[nH]c2=O)cc1
·	-0.1	Cc1ccc(C)n1-c1ccccc1C1C=NNC1=O (stereo unspecified)
-2	·	CCCNC(=O)c1c(C)oc2ncn(CC(C)C)c(=O)c12
20	·	COc1ccc(C(=O)NCCc2c(C)[nH]c3c(C)ccc(F)c23)cc1OC
5	5.3	CCC(=O)Nc1ccc(NC(=O)c2ccc(OC)cc2OC)cc1
-29	·	COc1ccc(-c2noc(CSCC(=O)NC3CC3)n2)cc1
-12	·	CCOC(=O)c1[nH]c(C)c(C(=O)N2CCOCC2)c1C
·	0.3	Cc1c(C(=O)O)nnn1-c1cccc(C(F)(F)F)c1
-1	·	COC(=O)Cc1cc(OC(C)=O)n(-c2ccc(F)cc2)n1
·	-2.8	CN(C)C(=S)NC(Cc1ccccc1)c1ccccc1 (stereo unspecified)
·	-0.6	N#Cc1cc(N)ccc1SCc1ccccc1

# Four entries drawn at random from the list so far:
S aureus helic	MgrA DNA FP	Compound
·	-1.0	COc1cc(-c2nc3ccccc3c(=O)n2NC(=O)c2ccc(Br)cc2)cc(OC)c1OC
3	2.1	O=C(N/N=C/c1ccc(OC2CSC2)cc1)c1ccncc1
·	0.3	Cc1c(C(=O)O)nnn1-c1cccc(C(F)(F)F)c1
8	·	CCOc1ccc(C2Oc3nc(SC)nnc3-c3ccccc3N2C(=O)CC)cc1 (stereo unspecified)

# Among those listed so far, six have an aryl methoxy group:
S aureus helic	MgrA DNA FP	Compound
-5	1.7	CCCCN(C)C(=O)C1(c2ccc(OC)cc2)CCOCC1
·	-1.0	COc1cc(-c2nc3ccccc3c(=O)n2NC(=O)c2ccc(Br)cc2)cc(OC)c1OC
-1	-0.5	COc1cc2c(cc1OC)C(c1cc(Br)ccc1O)N(C)CC2 (stereo unspecified)
20	·	COc1ccc(C(=O)NCCc2c(C)[nH]c3c(C)ccc(F)c23)cc1OC
5	5.3	CCC(=O)Nc1ccc(NC(=O)c2ccc(OC)cc2OC)cc1
-29	·	COc1ccc(-c2noc(CSCC(=O)NC3CC3)n2)cc1

# Further results follow.
S aureus helic	MgrA DNA FP	Compound
-10	·	O=C(CCn1c(=O)oc2ccccc21)Nc1ccccc1
·	-1.6	CC1CC(NC(=S)NC2CC3C=CC2C3)CC(C)(C)C1 (stereo unspecified)
19	·	O=C(CCCO)N=Nc1c(O)[nH]c2ccccc12
-3	-2.8	O=C(Cn1cc(C(=O)c2ccco2)c2ccccc21)NCC1CCCO1 (stereo unspecified)
1	·	Cc1c(C(=O)Nc2nc3ccc(Br)cc3s2)sc2nc[nH]c(=O)c12
-11	·	N#Cc1cnc2ccnn2c1N
·	-2.6	Cc1cc(C(F)(F)F)n2nc(-c3cccs3)cc2n1
7	·	CC1CCC2C(O1)c1ccccc1OC2(C)C (stereo unspecified)
16	-0.3	Cc1ccc(C(=O)N2c3ccccc3CC2C)o1 (stereo unspecified)
-27	·	O=C(CSc1nc2ccccc2s1)NCCCN1CCOCC1
11	0.2	Cc1nn2c3c(cnc2c1-c1ccccc1)C(=O)CC(c1ccc(C(C)C)cc1)C3 (stereo unspecified)
·	7.4	O=C(O)CC(CC(=O)Oc1ccccc1N1CCCCC1)c1ccccc1 (stereo unspecified)
4	1.1	O=C1C2C3c4ccccc4C(c4ccccc43)C2C(=O)N1O (stereo unspecified)
-1	·	CC(OC(=O)c1ccccc1NS(C)(=O)=O)C(=O)NC1(C#N)CCCCC1 (stereo unspecified)
-23	1.8	O=C(COC(=O)Cc1cccs1)Nc1ccc(F)c(F)c1F
-3	0.8	CN(Cc1ccccc1)C(=O)c1nc(-c2cccnc2)no1
·	-0.2	CCCc1c(C(=O)NCCCn2ccnc2)cnn1-c1ccccc1
0	·	Clc1cccc(OCc2nc3ccccc3o2)c1Cl
16	-1.8	CC(=O)Nc1sc(C)c(C)c1C(=O)O
9	-1.4	CC(C)CNC(=O)c1ccc(Br)o1
2	1.2	Cc1ccc(CSc2nc3ccccc3c(=O)n2Cc2ccccc2)cc1
-7	·	Cc1nn(CC(=O)NC2CCCc3ccccc32)c(=O)c2cc3occc3n12 (stereo unspecified)
6	·	O=S(=O)(NC1=NCCC1)c1cccs1
5	·	CSC1=NCCN1C(=O)c1ccc(Br)cc1
-18	·	CCC(C)NC(=O)Cn1ncc2c1-c1ccccc1OC2 (stereo unspecified)
6	·	CC(C)Cn1cc(NC(=O)N(C)C2CCCCC2)c2ccccc2c1=O
·	-1.9	COc1ccc(C2SCCN2C(=O)c2cc3cc(Br)ccc3oc2=O)cc1OC (stereo unspecified)
6	-0.8	COc1ccc(-c2nnc3sc(NC(=O)C(C)C)nn23)cc1
8	0.8	O=C(O)COc1ccccc1/C=N\n1cnnc1
1	-0.6	Cc1ccc(C(=O)N/C(=C/c2ccco2)C(=O)Nc2ccc(C(=O)O)cc2)cc1

# More compounds
S aureus helic	MgrA DNA FP	Compound
·	-1.9&0.4	Cc1cccc(N(C)C(=S)Oc2ccc3ccccc3c2)c1
8	6.9	COc1ccc(C(NC(=O)/C=C\c2ccco2)c2cc(OC)c(OC)cc2Br)cc1OC (stereo unspecified)
14	·	CCn1c(N2CCCCCC2)nc2c1c(=O)[nH]c(=O)n2C
-18	·	CC(=O)NC1C(=O)N=C(SCC(=O)Nc2cccc(Cl)c2)NC1=O (stereo unspecified)
-1	·	CN(C(=O)COC(=O)c1ccc(CN2CCCC2=O)cc1)c1ccccc1
7	-1.4	c1ccc(NCC2COc3ccccc3O2)nc1 (stereo unspecified)
-46	·	CCCN=CC1=C(O)CC(c2ccccc2)CC1=O (stereo unspecified)
1	-0.3	CCOC(=O)Cn1nnnc1C(C(C)C)N(Cc1ccc(F)cc1)Cc1cc2cc3c(cc2[nH]c1=O)OCO3 (stereo unspecified)
·	-0.5	O=C(Nc1ccccc1)OCc1cc(-c2ccc(Cl)cc2)oc1C(F)(F)F
2	0.4	CCCN1CCN(C(=O)Cn2cnc3sc(C)c(S(=O)(=O)N4CCC(C)CC4)c3c2=O)CC1
8	5.2	COC(=O)CCNc1ccc(OC)cc1
-3	·	O=C(Nc1cccc(C(=O)NC2CCCC2)c1)C1=CSCCO1
-14	·	COC(=O)CCCc1cccs1
·	2.0	CCCCCCCCCCCCCCCC(=O)OC/C=C(C)/C=C/C=C(C)/C=C/C1=C(C)CCCC1(C)C
7	1.8	CCN(CC)S(=O)(=O)c1cc(Br)ccc1OC
15	·	Cc1nc2ccccc2cc1C(=O)Nc1cccc(F)c1
12	4.4	CCCC/C(O)=C/c1nc2ccccc2[nH]c1=O
0	·	CC(C)(C)OC(=O)CSc1nc2ccccc2o1
7	·	COC(=O)c1ccc(COC(=O)C2Cc3ccccc3CN2C(=O)c2ccco2)cc1 (stereo unspecified)
22	1.9	CCN(CC(N)=O)S(=O)(=O)c1ccc(Br)cc1
13	·	CCOC(=O)c1sc2nc3c(cc2c1N)C(=O)CCC3
-15	0.2	CN(C)c1ccc(C(CN)c2c[nH]c3ccccc23)cc1 (stereo unspecified)
3	·	CC1NC(=S)N(C2CC2)C1=O (stereo unspecified)
-24	2.2	CC1(C)CC(NC(=O)c2ccco2)CC(C)(C)N1
12	·	COC(=O)CSc1nc(-c2ccccc2)nc2c1Cc1cccc(OC)c1O2
13	·	CC(=O)SCCC(=O)N1C(C)CCCC1C(=O)O (stereo unspecified)
-11	·	CN(C(=O)COC(=O)c1cccc(F)c1)c1ccccc1
5	·	CN(C)/C=C(/C(=O)c1ccccc1)c1nc2ccccc2[nH]1
·	-3.5	CC(=O)Nc1ccc(NC(=O)CC(C)(C)CC(=O)O)cc1
3	-0.6	C[N+](C)(C)CCNC(=O)c1ccc(/C=N/O)nc1

# Other compounds
S aureus helic	MgrA DNA FP	Compound
11	1.0	CSc1ccc(N=CN2C(=O)c3ccccc3C2=O)cc1
11	0.1	O=C(NCc1ccccc1)C1Sc2nnc(-c3ccccc3)n2NC1c1ccc(F)cc1 (stereo unspecified)
5	·	COc1ccc(C2CC(SCC(=O)Nc3ccccc3)=Nc3ncnn32)cc1 (stereo unspecified)
2	·	O=C(OCCN1C(=O)c2ccccc2C1=O)c1cccc(S(=O)(=O)N2CCCCC2)c1
·	6.8	COc1cc(/C=N/n2c(C)nc3c(ncn3-c3ccccc3)c2=O)cc(OC)c1OC
-1	-0.8	O=C1c2cccc3cccc(c23)C(=O)N1c1ccncc1
7	-1.6	Cc1cc(Br)ccc1NC(=O)c1cc2c(s1)-c1ccccc1OC2
-10	·	C=CCN1C(=O)c2ccc(C(=O)Nc3ccc(F)cc3)cc2C1=O
1	·	COC(=O)C1=C(NC(=O)c2ccccc2F)CCS1
14	-1.3	CC(=O)Nc1ccc(NC(=O)c2ccnn2C)cc1
10	-3.8	O=C(NC1CC1)c1cc(-n2cnnc2)ccc1Cl
-19	·	CCOc1ccc(-c2cc(C(=O)N3CCOCC3)c3c(-c4ccc(C)cc4)[nH]nc3n2)cc1
26	·	O=C(Nc1ccc2c(c1)OCO2)c1cccc2c1C(=O)N(Cc1cccnc1)C2
-15	0.9	O=C(NCC1CCCCC1)c1cccnc1
·	-2.4	OC(CNCc1ccc(Cl)cc1)CSc1ccccc1 (stereo unspecified)
0	19	O=C(Nc1ccccc1)c1ccncc1
5	·	Cc1nn(-c2ccccc2)c(C)c1CCC(=O)OCc1ccc(C#N)cc1
·	-2.6	CC1(C)CC(=O)C=C(N2CCOCC2)C1
·	3.1	CCN(CC)S(=O)(=O)c1ccc(C(=O)Nc2c3c(nn2-c2cccc(C)c2)CSC3)cc1
21	·	Cn1c(=O)[nH]c(=O)c2c1nc1n2CCN1Cc1ccco1
-1	1.6	CCOC(=O)C12C(=O)OC(C)(C)C1C2(C)C(=O)c1ccc(Br)cc1 (stereo unspecified)
10	0.5	Cc1cc(C)cc(NC(=O)N2CCC(NC(=O)C3CCCCC3)CC2)c1
13	·	Cc1nc2ccc(NC(=O)c3cccc(S(C)(=O)=O)c3)cc2s1
·	-1.0	O=C1CC2(CCCC2)C(=O)N1CCc1cccs1
·	-1.9	CCN(CC)c1ccc2cc(C(=O)NC(C)=O)c(=Nc3ccccc3OC)oc2c1
18	5.8	Cc1cccc(C)c1OC(=O)CN1C(=O)c2ccccc2C1=O
·	2.0	NC(N)=NS(=O)(=O)c1cc(C(F)(F)F)cc(C(F)(F)F)c1
19	·	CS(=O)(=O)Nc1ccccc1C(=O)OCC(=O)NC1CC1
16	15	NC(=O)c1cc2ccccc2o/c1=N\O
-3	·	Cc1nn(C(C)C(=O)NCc2ccccc2)c(=O)c2cc3occc3n12 (stereo unspecified)

# Continued.
S aureus helic	MgrA DNA FP	Compound
-3	·	Cc1sc2nc(C(C)Sc3nnc(-c4cccs4)n3-c3ccccc3)[nH]c(=O)c2c1C (stereo unspecified)
-4	-2.8	c1ccc(C2Oc3ccccc3C3CC(c4ccco4)=NN32)cc1 (stereo unspecified)
-12	·	CC(Sc1nnc(-c2ccccc2)o1)C(=O)NCCC1=CCCCC1 (stereo unspecified)
0	3.0	Cc1cc(-c2c(O)c3ccccc3n(C)c2=O)no1
·	-0.9	COc1ccc(C(=O)O)c(Cl)c1OC
3	·	CSc1nc(-c2ccccc2)nc2[nH]c(-c3ccccc3)cc(=O)c12
-17	·	CN1CCN(CCNC(=O)Cn2ncc3c4ccccc4n(Cc4ccc(F)cc4)c3c2=O)CC1
-8	·	CSc1ccccc1NC(=O)CN(C)C(=O)C1CCCCC1
·	-2.7	COC(=O)/C=C1\S/C(=N\c2ccccn2)N(c2cccc(SC)c2)C1=O
5	·	COC(=O)c1sc(N)c(C(=O)OC)c1COC(=O)c1cc(S(N)(=O)=O)ccc1OC
·	10	O=C(/C=C/c1ccco1)Nc1ccc2ccccc2c1
·	-0.6	O=c1c2ccccc2nc2n1CCN2Cc1ccccc1
-21	·	Cc1cc2ccccc2n1CCNC(=O)C1CCCC1
·	1.7	COC(=O)CCC(CCC(=O)OC)(C(C)=O)C(=O)OC
·	-3.4	COc1ccccc1CC(=O)NC1CC2CCC(C1)N2C (stereo unspecified)
13	-2.2	Fc1cnc(Nc2ccccc2)nc1N1CCOCC1
4	0.1	c1ccc(CC2CCN(Cc3nnc(-c4ccccc4)o3)CC2)cc1
-5	·	c1ccc(-c2csc(NC3CCCCC3)n2)cc1
·	-2.0	CC(C)n1c2ccccc2c2ccccc21

# A portion of the library; count on the stated rates, not on these rows.
